Arbovirus anti: antivirals against arbovirus infection | inhibition, % at 10 µM | arbovirus infection cell-based antiviral screen | 200,000 tested, 0.37% active | AID 1251;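 active = inhibition from about 30%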;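 note: bluetongue infection of BSR cells; cell survival read as ATP light after 72 h; 0% = infected wells without compound and 100% = uninfected wells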
Mtb H37Rv: M. tuberculosis H37Rv growth inhibitors, H37Rv strain (AID 1626); M. tuberculosis H37Rv growth inhibition; higher % means a stronger effect; inhibition, % at 10 µM; hits with a dose series show IC50 in µM; 220,000 tested, 0.95% active;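 active = confirmed in a dose series; inconclusive = inhibition above 80% but not taken into the dose series; inactive = below 80% or under 30% at every dose of the series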;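 note: bacteria incubated seven days before Alamar blue readout; 0% = bacteria only wells and 100% = bacteria with antibiotic wells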
RecA splice inh: Mtb RecA intein splicing inhibition; P9WHJ3; cell-free RecA intein splicing, fluorescence; inhibition, %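 (about 9 µM by stock and volumes)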; 290,000 tested, 0.75% active; AID 2221; in the data active = inhibition above about 30%; inconclusive = no clear call, values can overlap the other calls;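 note: 0% = vehicle wells and 100% = reference inhibitor control wells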
Target sequence (P9WHJ3 whole entry, looked up, canonical isoform): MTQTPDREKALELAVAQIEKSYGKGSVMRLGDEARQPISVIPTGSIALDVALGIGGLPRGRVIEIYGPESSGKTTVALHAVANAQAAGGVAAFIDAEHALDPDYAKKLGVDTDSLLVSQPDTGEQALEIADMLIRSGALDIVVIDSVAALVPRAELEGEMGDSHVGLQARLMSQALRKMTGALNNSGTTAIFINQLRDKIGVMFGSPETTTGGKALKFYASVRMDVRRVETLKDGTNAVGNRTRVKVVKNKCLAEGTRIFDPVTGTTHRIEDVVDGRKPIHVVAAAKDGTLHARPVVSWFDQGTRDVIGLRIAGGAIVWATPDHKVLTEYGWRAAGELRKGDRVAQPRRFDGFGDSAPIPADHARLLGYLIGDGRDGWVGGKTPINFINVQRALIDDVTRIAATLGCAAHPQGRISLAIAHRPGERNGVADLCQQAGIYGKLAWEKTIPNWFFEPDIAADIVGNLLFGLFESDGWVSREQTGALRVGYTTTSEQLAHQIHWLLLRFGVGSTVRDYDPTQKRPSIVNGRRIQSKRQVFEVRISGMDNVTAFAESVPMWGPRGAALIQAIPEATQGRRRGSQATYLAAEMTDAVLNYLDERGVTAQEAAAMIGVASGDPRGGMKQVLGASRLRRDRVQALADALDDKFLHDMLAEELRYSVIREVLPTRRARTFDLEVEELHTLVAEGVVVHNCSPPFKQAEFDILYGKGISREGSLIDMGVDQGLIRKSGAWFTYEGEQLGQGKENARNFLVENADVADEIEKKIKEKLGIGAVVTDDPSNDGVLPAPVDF
Mtb betalactam: beta-lactam sensitization of Mtb H37Rv; AID 434955; 330,000 tested, 0.27% active; M. tuberculosis H37Rv growth with meropenem, percent inhibition; hits of this screen are not shown here; inhibition, % at 25 µM;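 active = about 74% or more and at least 40 points above the plate without the antibiotic, then above 30% in a dose series; inconclusive = first-round hits that could not be retested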;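 note: growth measured after seven days incubation then overnight dye step; 0% = bacteria only wells and 100% = bacteria with antibiotic; twin plates without the antibiotic show which effects depend on it; some results filed as inactive read as strong as hits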
YopH inh: blocks Yersinia enterocolitica YopH tyrosine phosphatase. 140,000 tested, 0.16% active. fluorescence Ex485/Em525. inhibition, %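 (about 10 µM by stock and volumes)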;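 active = inhibition of 50% or more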;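 note: controls were vehicle for no effect and minimum signal wells for full effect; inactives centre near -20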
Arbovirus anti repeat: second read-out of Arbovirus anti, no call of its own (marks repeat the call); inhibition, %; measured here: 10K subset replicate screen; many hits read low in the repeat;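 first of two repeat runs on a subset; 0% = infected and 100% = uninfected wells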
An asterisk follows results filed as active; ? = inconclusive; . = no result given; & = joins results of further samples.

The opening 2 compounds, to show the layout:
SMILES	Arbovirus anti	Mtb H37Rv	RecA splice inh	Mtb betalactam	YopH inh	others
Cc1c(Cl)cccc1NC(=O)Nc1ccc(C(=O)N2CCCC2)cc1	-3	18%	1.7	2	-23
CCc1sc(NC(C)=O)nc1-c1ccccc1	0	-7%	1.5	0	.

The listing, repeating the preview:
SMILES	Arbovirus anti	Mtb H37Rv	RecA splice inh	Mtb betalactam	YopH inh	others
Cc1c(Cl)cccc1NC(=O)Nc1ccc(C(=O)N2CCCC2)cc1	-3	18%	1.7	2	-23
CCc1sc(NC(C)=O)nc1-c1ccccc1	0	-7%	1.5	0	.
COCCNC(=O)Cn1nc(-c2ccc(C)cc2)ccc1=O	.	.	-1.9	2	.
O=c1cc(Cn2ccnc2)c2cc(O)ccc2o1	.	.	-2.2	-3	.
O=C1OCC(c2ccccc2)=C1c1ccccc1	.	.	0.0	-9	.
Cc1oc(-c2ccc(Cl)cc2)nc1CS(=O)CC(=O)NCc1cccs1 (stereo unspecified)	-9	5%	1.8	3	-18
c1ccc2c(c1)nnn1c3ccccc3nc21	-3	-3%	-24	-2	-47
Cc1cc(=O)[nH]c(SCC(=O)Nc2nc(-c3ccccc3)c(-c3ccccc3)o2)n1	-2	1%	6.1	8	-11
Cn1c(=O)c2ccccc2n(Cc2cccc(F)c2)c1=O	.	.	2.5	-4	.
O=C(NC(=S)Nc1ccc(N2CCOCC2)cc1)c1cccs1	0	-5%	2.0	-5	.

An excerpt from above in order of molecular weight, ascending:
SMILES	Arbovirus anti	Mtb H37Rv	RecA splice inh	Mtb betalactam	YopH inh	others
c1ccc2c(c1)nnn1c3ccccc3nc21	-3	-3%	-24	-2	-47
O=c1cc(Cn2ccnc2)c2cc(O)ccc2o1	.	.	-2.2	-3	.
Cc1c(Cl)cccc1NC(=O)Nc1ccc(C(=O)N2CCCC2)cc1	-3	18%	1.7	2	-23

(cont.)
SMILES	Arbovirus anti	Mtb H37Rv	RecA splice inh	Mtb betalactam	YopH inh	others
Cc1cc(S(=O)(=O)N2CCOCC2)ccc1OCC(=O)N1CCCCC1	.	.	-0.4	-4	.
CN(Cc1cccc(Cl)c1)C(=O)C1CCC(=O)N(C2CC2)C1 (stereo unspecified)	.	.	-0.1	-6	.
O=C(CN1C(=O)NC2(CCCCCCC2)C1=O)NC(=O)NCc1ccco1	-1	-11%	5.7	6	-19
O=C(c1ccncc1)c1ccc(N2CCN(C3CC(=O)N(Cc4ccccc4)C3=O)CC2)cc1 (stereo unspecified)	5	-1%	-2.0	45	-6
Cc1nc2cc(NS(=O)(=O)c3ccccc3F)ccc2s1	.	12%	-2.0	2	.
Cc1ccc(-c2nc(CN(C)C3CCOC3)c(C)o2)s1 (stereo unspecified)	13	3%	0.7	-3	.
O=C(COc1ccc(F)cc1F)NNC(=O)Nc1cccc([N+](=O)[O-])c1	.	.	-0.5	6	.
O=C(CCCCn1c(=O)c2ccccc2n(CC(=O)Nc2ccccc2)c1=O)NCc1ccco1	-3	-2%	-1.5	2	-3
CCn1nc(NC(=O)c2ccncc2)c2cc3cc(C)ccc3nc21	-1	?	-6.2	99	32
FC(F)(F)c1nnc2sc(-c3cccs3)nn12	6	-13%	2.7	-6	-1
COC(=O)C1(Cc2cc(-c3ccc(OC)cc3OC)no2)CCN(C(=O)OC(C)(C)C)CC1	.	.	-0.6	-1	.
CC(C)[N+]1(C)[C@@H]2CC[C@H]1CC(OC(=O)C(CO)c1ccccc1)C2 (stereo partly specified)	-1	-8%	-0.5	-5&2&-5	-26
COc1ccc(CCNC(=O)CCc2ccc(S(=O)(=O)NCC(C)C)cc2)cc1	2	-1%	-0.5	1	-45
c1ccc(-c2nnc(-c3c[nH]c4ccccc34)nc2-c2ccccc2)cc1	-3	16%	5.8	44	4
CCCc1cc(=O)oc2cc(C)cc(OCC(=O)N[C@@H](CSCc3ccccc3)C(=O)O)c12	.	.	-3.4	-4	.
CC(C)Oc1ccc(N2CC(C(=O)Nc3ccc(N4CCOCC4)cc3)CC2=O)cc1 (stereo unspecified)	1	-6%	0.7	-1	0
COCCCn1c(C(C)C)nc2oc3cc(OC)ccc3c(=O)c2c1=O	14	-2%	-3.8	1	-26
CC(=O)Nc1c([N+](=O)[O-])cc(C)c(Cl)c1[N+](=O)[O-]	3	-1%	.	1	.
COc1ccc(CN2CC(C(=O)NCC3CCCO3)CC2=O)cc1 (stereo unspecified)	3	-10%	0.2	-8	-3
O=C(c1n[nH]c2ccccc12)N1CCN(S(=O)(=O)c2ccc3ccccc3c2)CC1	9	1%	15	-16	-10
CC(C)c1ccc(S(=O)(=O)/N=C2/C=C(Sc3ncn[nH]3)C(=O)c3ccccc32)cc1	-37	6%	.	12	101*
N#C/C(=C\c1ccc(N2CCCCC2)o1)C(N)=O	7	-3%	-5.1	-5	.
COCCCn1c(=O)c2sccc2n2c(CCCC(=O)NCc3ccccc3)nnc12	.	.	-2.9	-1	.
CCN(CC)Cc1c(O)ccc2occ(C(=O)c3ccc(OC)cc3)c12	1	15%	1.0	-1	6
Cc1ccccc1CSCCNC(=O)CCSc1ccccc1	5	-2%	8.3	-1	-10
CN1C(=O)N(C)C(=O)C(CCc2ccccn2)(CCc2ccccn2)C1=O	5	-1%	0.3	-15	9
CN1C(=O)CC(NNC(=O)c2ccccc2)C1=O (stereo unspecified)	11	-7%	-0.1	-3	-87
CCn1cc(CN2CCC(C(=O)Nc3cccc(-c4cccc(OC)c4)c3)CC2)c(C)n1	.	.	0.7	-4	.
COc1ccccc1C(=O)NC(CCSC)C(=O)NNC(=O)c1ccc(F)cc1 (stereo unspecified)	.	.	0.1	-12	.
NC(=O)Nc1ccc(Oc2c(F)c(F)c(F)c(F)c2F)cc1	-2	5%	3.5	-13	-43
CCSc1nc2ccc(N3C(=O)C4C5C=CC(C5)C4C3=O)cc2s1 (stereo unspecified)	-2	6%	-2.3	5	-27
O=c1[nH]c2cc3c(cc2cc1C(c1nnnn1CC1CCCO1)N1CCCC1)OCO3 (stereo unspecified)	3	-1%	-8.4	-5	-30
c1cc2c(cc1OCCNC1CCCC1)CCC2	-1	-6%	1.4	1	.
CCOC(=O)Cc1csc(NC(=O)Nc2cccc(OC)c2)n1	.	-5%	1.1	4	.
CCOC(=O)c1cc(CC)sc1/N=C/C1=C(O)CC(C)(C)CC1=O	-13	6%	1.5	6	-20
O=S(=O)(NC1CCCCC1N1CCN(c2ccc(F)cc2)CC1)c1ccccc1 (stereo unspecified)	.	.	8.8	6	.
Cc1ccccc1CSc1nnc(-c2ccncc2)o1	-26	2%	3.8	0	.
CCNC(=S)N/N=C1\CCCCc2ccccc21	1	6%	-0.6	88	-23
CCCc1cc(=O)[nH]c(SCC(=O)Nc2sc3c(c2C#N)CCC(C)C3)n1 (stereo unspecified)	15	0%	-1.6	-1	.
N#Cc1c(C(F)(F)F)cc(C2CC2)nc1N1CCCC1	9	-6%	0.5	-18	-28
CN1CCN(NC(=O)CSc2ccc(Cl)cc2Cl)CC1	7	-2%	0.9	-1	.
CCC(=O)N1CCN(c2ccc(NC(=S)NC(=O)c3ccc(OC)c([N+](=O)[O-])c3)cc2)CC1	7	23%	3.1	.	.
COc1ccccc1OCc1csc(N)n1	3	-5%	2.6	1	.
Cc1ccc(NC(=O)c2sc3nc(C)cc(C)c3c2N)cc1	.	.	-1.1	2	.
Cn1nc(-c2ccc(Cl)cc2)c2cc(C(=O)NCC3CCCO3)sc21 (stereo unspecified)	9	20%	3.7	57	-31	Arbovirus anti repeat=-6
Cc1ccc(S(=O)(=O)NC(=O)c2ccc(Br)o2)c(C)c1	3	-10%	1.6	12	-18
Cc1sc(-n2c(C)cc(/C=N/n3cnnc3)c2C)c(C#N)c1C	-3	85%	-1.3	54	-47
COC(=O)c1ccc(Oc2nc(NC(C)C)nc(NC(C)C)n2)cc1	.	5%	0.2	0	.
CCCCNC(=O)c1onc(CSc2cc(C)cc(C)c2)c1C(=O)O	9	-9%	0.4	-3	-127
COc1ccc(O)c(/C=N/NC(=O)c2cccc(N3CCCC3=O)c2)c1	.	.	-9.5	3	.
(cont.)
SMILES	Arbovirus anti	Mtb H37Rv	RecA splice inh	Mtb betalactam	YopH inh	others
COc1ccc(S(=O)(=O)N2CCc3cc(OC)c(OC)cc3C2)cc1	.	-2%	0.7	-5	.
COC(=O)Cc1[nH]nc2c1C(c1ccc(O)c(OC)c1)C(C#N)=C(N)O2 (stereo unspecified)	.	-2%	77*	-3	.
COc1cc(C(=O)C(=O)c2ccc(O)c(OC)c2)ccc1O	.	-8%	5.3	-6	.
Cc1cc(C)c(C(=O)OCc2csc(CC(=O)Nc3ccccc3C)n2)c(C)c1	.	.	6.0	4	.
CCCN1CCC(NC(=O)Nc2ccccc2C(=O)OC)CC1	18	2%	0.6	-7	4
CCc1cc(=O)oc2cc(C)cc(OC(C)C(=O)NCc3ccncc3)c12 (stereo unspecified)	.	.	1.1	7	.
Nc1ccc(-c2nc3ccccc3o2)cc1	.	.	1.7	46	.
Cc1cccc(C)c1NC(=O)CNC(=O)c1ccncc1	.	.	9.1	-12	.
Cc1ccc(C)c(Cn2c3ccccc3c3cnn(CC(=O)NCc4ccccn4)c(=O)c32)c1	.	.	3.1	8	.
Cc1ccc(NC(=O)C2(C)Cc3ccccc3C(=O)O2)cc1 (stereo unspecified)	3	-1%	0.3	5	.
O=C(NC(=S)NNC(=O)[C@H]1C[C@@H]1c1ccccc1)c1ccc(F)cc1	.	68%	5.8	76	.
O=C(NNC(=O)c1ccncc1)NC1CCCCC1	5	-6%	-1.6	-3	.
Cc1nc2n(c(=O)c1CCN1CCC(c3noc4cc(F)ccc34)CC1)CCCC2	-3	2%&2%	-2.3	5	.
CCOC(=O)C(NC(C)=O)(NC(C)C)C(F)(F)F (stereo unspecified)	.	-5%	-1.4	-2	.
O=C(NCCNc1nccc(C(F)(F)F)n1)c1cccs1	.	-8%	0.3	-5	.
Cc1ccc(CN2CCNC(=O)C2CC(=O)N(C)CCc2ccccc2)cc1 (stereo unspecified)	1	4%	-0.1	6	.
CCOC(=O)COc1ccc(C(=O)c2ccccc2)c(O)c1	-5	?	-3.3	100	-31
COC(CN1C(=O)C(O)=C(C(C)=O)C1c1ccccn1)OC (stereo unspecified)	4	10%	0.0	-8	-4
Cc1nsc(N)c1C(=O)O	.	-3%	-0.1	0	.
CCCC(=O)Nc1ccc(C(=O)Nc2cccc(OC)c2)cc1	1	0%	.	5	-11
Cc1ccc(NC(=O)N2CCN(C/C=C/c3ccccc3)CC2)cc1	6	9%	0.9	-1	.
COc1ccc(OCC(=O)N/N=C(\C)c2cc3ccccc3o2)cc1	-4	7%	2.5	8	-32
O=C(CSc1nc2sc3c(c2c(=O)[nH]1)CCCC3)NCCO	8	-3%	-1.3	-6	-23
O=S(=O)(NCc1ccc(F)cc1)c1ccc(-n2cccn2)cc1	.	.	-1.3	0	.
COC(=O)CCc1ccc(OCC(O)CNC(C)C)cc1 (stereo unspecified)	.	-6%	-2.4	-2	.
COc1ccccc1NC(=S)N(Cc1ccco1)Cc1cc2ccc(C)c(C)c2[nH]c1=O	-9	14%	5.2	-1	-10
CC1(C(=O)NC2CCCCCCC2)CCC(=O)N1Cc1ccco1 (stereo unspecified)	1	-10%	1.6	9	-49
Cc1noc(C)c1COc1ccccc1C(=O)NCCc1ccc(Cl)cc1	.	.	4.2	-1	.
NC1=NC2(CCCCC2)N(c2ccc(F)cc2F)C(N)=N1	-1	0%	-4.4	-14	.
CCOC(=O)C1CCN(CCCSc2ccccc2)CC1	.	.	-1.0	-6	.
CCc1ccccc1NC1=NCC(=O)N1Cc1ccc2c(c1)OCO2	-4	3%	-9.2	4	26
CCN(CC(=O)NC(C)(C)C)C(=O)c1ccccc1SCC(=O)NC1CCCCCCC1	.	.	0.7	0	.
O=C(C1CCN(S(=O)(=O)c2cccnc2)CC1)N1CCCCC1	-3	5%	0.4	-9	1
O=C(Cc1ccccc1)NCC1COc2ccccc2O1 (stereo unspecified)	.	5%	1.3	13	-6
Cc1[nH]nc2c1C(c1ccco1)C(C#N)=C(N)O2 (stereo unspecified)	-6	5%	58*	0	.
Cc1cc(C)cc(N(CC(=O)NC(C)(C)C)C(=O)CCC(=O)Nc2nccs2)c1	.	.	-0.8	-15	.
CCc1nnc(NC(=O)C(c2ccccc2)c2ccccc2)s1	.	.	1.9	-1	.

Quoted at random: 2 records from the list.
SMILES	Arbovirus anti	Mtb H37Rv	RecA splice inh	Mtb betalactam	YopH inh	others
COc1ccc(CCNC(=O)CCc2ccc(S(=O)(=O)NCC(C)C)cc2)cc1	2	-1%	-0.5	1	-45
Cc1ccc(NC(=O)C2(C)Cc3ccccc3C(=O)O2)cc1 (stereo unspecified)	3	-1%	0.3	5	.

Some of the compounds tested. The share of hits here may be higher or lower than overall.
